Assay outcomes from PubChem.
NPR1 antag – blocks ANP-stimulated signaling of human Npr1 receptor | HEK293 hNpr1 GloSensor cGMP, ANP-stimulated luminescence | Potency, µM (top dose mostly 46.3 µM), for the others: at the top dose activity change, negative = inhibition, most hits filed as inhibitors | hit rate 1.6% among 76,000 | P16066; active = well fitted inhibition curve with a large enough effect; inconclusive = small, poorly fitted or top-dose-only effect; inactive = no such curve, though single readings can be large or run the other way;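 note: nearly all actives have a fitted effect of over 60% in size; nearly all hits also lower the signal before the agonist is added; a reference antagonist and vehicle were the controls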
Target sequence (P16066 whole entry, looked up): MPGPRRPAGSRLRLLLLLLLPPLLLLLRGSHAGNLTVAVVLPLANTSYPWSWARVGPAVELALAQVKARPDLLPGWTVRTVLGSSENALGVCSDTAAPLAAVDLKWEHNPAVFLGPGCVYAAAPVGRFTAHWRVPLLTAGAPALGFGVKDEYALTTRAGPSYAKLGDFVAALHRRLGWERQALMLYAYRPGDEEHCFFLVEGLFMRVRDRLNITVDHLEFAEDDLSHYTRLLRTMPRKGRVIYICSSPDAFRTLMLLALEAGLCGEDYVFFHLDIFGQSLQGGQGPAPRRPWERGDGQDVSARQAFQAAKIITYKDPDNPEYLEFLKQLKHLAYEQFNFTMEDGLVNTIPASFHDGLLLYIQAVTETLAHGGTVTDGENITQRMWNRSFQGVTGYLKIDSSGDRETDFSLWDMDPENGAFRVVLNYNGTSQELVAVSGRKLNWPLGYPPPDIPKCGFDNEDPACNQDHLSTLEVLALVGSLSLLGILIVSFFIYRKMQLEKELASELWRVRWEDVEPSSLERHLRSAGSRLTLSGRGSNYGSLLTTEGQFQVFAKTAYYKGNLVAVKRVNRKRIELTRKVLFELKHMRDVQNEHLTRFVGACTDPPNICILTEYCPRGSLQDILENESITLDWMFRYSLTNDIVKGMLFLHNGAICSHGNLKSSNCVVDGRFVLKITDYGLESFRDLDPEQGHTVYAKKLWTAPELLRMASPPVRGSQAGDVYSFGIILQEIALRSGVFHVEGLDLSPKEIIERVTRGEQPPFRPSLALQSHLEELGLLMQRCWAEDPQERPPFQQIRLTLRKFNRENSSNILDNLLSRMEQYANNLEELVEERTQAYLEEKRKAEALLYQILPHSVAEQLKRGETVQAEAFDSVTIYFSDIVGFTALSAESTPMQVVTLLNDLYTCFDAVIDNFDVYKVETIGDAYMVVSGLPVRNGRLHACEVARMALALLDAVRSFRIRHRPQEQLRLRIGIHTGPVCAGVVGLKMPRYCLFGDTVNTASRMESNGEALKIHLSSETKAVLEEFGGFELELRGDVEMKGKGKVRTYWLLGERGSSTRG
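Compound pre-incubated 30 min at room temperature on GloSensor-loaded HEK293 cells stably carrying hNpr1 and the pGS-40F cGMP biosensor. Stimulation uses hNppA at 0.1 nM final; luminescence is taken at baseline and 20 min post-agonist.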
Starred values were filed as active, the others as inactive; u = inconclusive; [ ] = dose if it differs, or a comment. % is set by controls: 0 for no effect and ±100 for the full control effect; potency is the fitted concentration of half-maximal effect.

SMILES	NPR1 antag
O=C(CC1CCCCC1)N1CCN(C2CCN(CCc3ccccc3)C2=O)CC1 (centres undefined)	5%
COc1ccc(-c2noc(CC3CCN(C(=O)c4ccc(OC)cc4OC)CC3)n2)cc1	2.8µM*
CCOc1ccccc1NC(=O)CN1C(=O)C(c2ccccc2)=NC12CCCCC2	4%
COc1ccccc1C(=O)NCc1nnc2ccc(-c3ccc(C)cc3)nn12	4%
Cc1cccc(-n2c(=O)c3c(cc(C)n3C)n(CC(=O)Nc3ccccc3F)c2=O)c1	-1%
CS(=O)(=O)N1C[C@@H]2OCC(=O)N(Cc3cccnc3)[C@@H]2C1	-3%[70.6 µM]
CC(C)c1noc(-c2ccn3c(CNC(=O)c4ccco4)nnc3c2)n1	12%
Cc1noc(C)c1CC(=O)N1[C@@H]2CC[C@H]1CC(NC(=O)c1ccncc1)C2 (some centres undefined)	8%
N#Cc1ccccc1S(=O)(=O)N[C@H]1CO[C@H]2[C@@H]1OC[C@@H]2n1nnnc1Oc1ccccc1	-10%
Cc1ccc(CN2C[C@@H]3C(=O)N(C)C(=O)[C@@H]3C2)cc1C	4%
Cc1ccc(C2(O)CCN(C(=O)c3ccc4nc(C)c(C)nc4c3)CC2)nc1	2%
CSCC(=O)N1C[C@@H](NC(=O)NC2CCCCC2)C[C@H]1C(=O)N(C)CC(N)=O	-22%[70.6 µM]
CC1CCC(NC(=O)C2CCN(c3cc(C(F)(F)F)ncn3)CC2)CC1 (centres undefined)	2.2µM*
COc1ccc2[nH]c3c(c2c1)CCNC31CCN(C(=O)c2cnc(C)cn2)CC1	9%
Cc1cnc(CC2CCN(C(=O)C(C)C)C2)n1C(C)C (centres undefined)	7%
CCc1nc2c(NC(=O)Nc3cccc(C(=O)OC)c3)cccn2n1	-4%
CCCNc1cc(N2CCC(CCC(=O)Nc3cc(C)ccc3C)CC2)ncn1	-23%
CC(=O)Nc1ccccc1-c1c(C)nn2c1N(C(=O)c1ccc(Oc3ccccc3)cc1)CCC2	11µM*
CCOCC(=O)N1CCC2(CC1)NCCc1c2[nH]c2ccccc12	0%
CCOC(=O)C(C)NC(=O)N1CCC2(CC1)CN(Cc1ccc(OC)cc1)C2=O (centres undefined)	1%
CCOCCN1C(=O)COC[C@@H]1[C@H](O)c1ccc(NC(=O)C2CCCCC2)cc1	-2%[70.6 µM]
COc1ccc(-c2cc(C[C@@H]3CC[C@H](O)[C@@H](CNC(=O)C(C)(C)C)O3)no2)cc1	2%[70.6 µM]
CNC(=O)N1Cc2ccccc2OC2(CCN(C(C)C)CC2)C1	-5%
COCCn1cnnc1C(C)NC(=O)c1cn(C2CCC(N)CC2)nn1 (centres undefined)	0%
O=C(NC1CCN(c2cc(-c3cccs3)[nH]n2)C1)c1ccc(F)c(F)c1 (centres undefined)	-5%
CN(C)C(=O)CC1CCOC2(CCN(S(=O)(=O)c3cn(C)cn3)CC2)C1 (centres undefined)	1%
Cc1ccc(CNC(=O)C2CCc3sc(C(=O)N4CCOCC4)cc3C2)o1 (centres undefined)	3%
O=C(c1cccc(O)c1)N1CC=C(c2cnc3cnc(-c4ccccc4)cn23)CC1	-20%[70.6 µM]
CCN(CC)CCNC(=O)c1ccc2c(c1)N(S(C)(=O)=O)CC2	3%
O=C(c1cncc(Br)c1)N1CCCN(C(=O)C2CC2)c2ccccc21	-9%
CC1(c2noc(-c3ccccn3)n2)CCN(C(=O)CCCc2nc3ccccc3s2)CC1	u
COc1cc(SC)ccc1C(=O)N[C@H]1CCN2C(=O)N(c3cccc(SC)c3)C(=O)[C@@H]2C1	-1%
O=c1c2c(nc3cc(-c4ccccc4)[nH]n13)CN(S(=O)(=O)Cc1cccc(F)c1)CC2	-14%
CC(=O)Nc1cccc(-c2cnc3n[nH]c(-c4ccc(F)cc4C)c3n2)c1	-30%[70.6 µM]
COc1cc2c(cc1C(=O)N1CC[C@@](O)(C3CCOCC3)[C@H](C)C1)CCC2	2%
Cn1cnc(S(=O)(=O)N2CCCN(C(=O)c3ccco3)CCNC(=O)CC2c2ccccc2)c1 (centres undefined)	0%
CN(C)c1ccc(NC(=O)COc2ccc(-c3nnc4n3CCCC4)cc2)cc1	-3%
O=C(COc1ccccc1)N1CCN(c2cc(C(F)(F)F)ncn2)CC1	-3%
CN(C)C[C@@H]1CN(c2ccncn2)C[C@H]1NC(=O)Cc1ccsc1	5%
COc1ccc(N2C(=O)CSC23CCN(C(=O)c2ccc(C)cc2)CC3)cc1	-1%
O=C(c1ccco1)N1CCC(N2CCCC(C(=O)N3CCCC3)C2)CC1 (centres undefined)	4%
O=C(c1ccc(F)cc1)N1CCC2(CC1)OCC(C(=O)N1CCCC1)N2C(=O)c1cccc(F)c1 (centres undefined)	-3%
Cc1noc(-c2ccc(OC3CN(C(=O)NC4CCCCC4)C3)cc2)n1	u
CCOCCn1nc(C)cc1C(=O)N1C[C@@H](C)[C@](O)(C2CC2)C1	4%
COc1ccc(C(=O)N2CCC3(CC2)CCN(Cc2cccs2)c2ccccc2O3)cc1	7%
COCCN1C(=O)CS(=O)(=O)C12CCN(C(=O)c1ccc(F)cc1)CC2	-10%
COc1ccnc(N2CC[C@H](c3nnc(-c4ccc(C)cc4)o3)C2)n1	-3%[70.6 µM]
COc1ccc(C)cc1NC(=O)N1CCC(N2CC3CC(C2)[C@H]2CCCC(=O)N2C3)CC1 (some centres undefined)	3%
Nc1n[nH]c(CNc2cc(-c3ccc(F)cc3)nc3ccnn23)n1	3%
Fc1ccc(OCc2nnc([C@H]3CCN(Cc4cccnc4)C3)o2)cc1	0%[70.6 µM]

Later entries:
SMILES	NPR1 antag
CSc1ccc(NC(=O)C2CCN(C(=O)c3ncn4c3COC(c3ccc(F)cc3)C4)CC2)cc1 (centres undefined)	-27%
CCOc1ccc(S(=O)(=O)N2C[C@@H](C(N)=O)[C@H](C3CCN(C)CC3)C2)cc1	7%
COc1ccc(NC(=O)C[C@H]2NC(=O)c3ccccc3NC2=O)cn1	1%
O=C(Cn1c(=O)oc2cc(Cl)ccc21)NC1CCc2n[nH]c(=O)n2CC1 (centres undefined)	6%
Cc1nn2c(c1-c1ccccc1N1CCCC1)N(C(=O)COc1ccccc1)CCC2	-14%[70.6 µM]
CCCc1cc(C(=O)N2C[C@@H](CN3CCOCC3)[C@@H](CO)C2)n[nH]1	0%
Cc1noc2c(NC(C)C)cc(-c3ccsc3)nc12	-2%[70.6 µM]
O=C(c1ccco1)N1CCN(c2ncncc2-c2nc(-c3ccccc3)no2)CC1	-4%
O=c1cc(-c2cccnc2)nc(-c2ccc(CN3CCCC(F)(F)C3)cc2)[nH]1	-1%
CCOc1cccc(CNC(=O)c2ccc(Cn3ccn4nc5c(c4c3=O)CCCC5)cc2)c1	-30%
Cc1cc2c(c(=O)n(-c3ccc(F)cc3)c(=O)n2CC(=O)Nc2cccc(C#N)c2)n1C	1%
O=C(COc1ccccc1)Nc1ccc([C@@H](O)[C@H]2COCC(=O)N2Cc2ccc(F)cc2)cc1	-5%
O=C(NCCOc1ccccc1)c1ccc2c(c1)OCCN(CCC(F)(F)F)C2	-10%[70.6 µM]
O=C1Nc2ccc(-c3ccccc3F)cc2C(=O)N2CCN(C(=O)c3cccnc3)C[C@H]12	6%[70.6 µM]
N#Cc1ccccc1S(=O)(=O)N[C@H]1CO[C@H]2[C@@H]1OC[C@H]2OC(=O)Nc1cccc(C(F)(F)F)c1	1%
CCN(CC)C(=O)C(C)[C@@H]1CC[C@@]2(C)CC[C@H](NC(=O)C3CC3)[C@@H](C)[C@@H]2[C@H]1O (some centres undefined)	6%[70.6 µM]
O=C1CC(c2ccccc2)N(C(=O)CNS(=O)(=O)c2ccc3c(c2)CCC3)CCCCCN1 (centres undefined)	1%
CCCOc1cc(C)c2c(c1C)C[C@H](C(C)C(=O)N1CCC(O)CC1)CC2 (some centres undefined)	-6%[70.6 µM]
COc1ccc(C(=O)N2CCN3C(=O)N(CC(N)=O)C(=O)[C@@H]3C2)cc1	-2%[70.6 µM]
CC1=NOC2(CCN(C(=O)c3ccccc3F)C2)C1 (centres undefined)	-19%[70.6 µM]

Single entries from above.
For NPR1 antag, O=C(NCCOc1ccccc1)c1ccc2c(c1)OCCN(CCC(F)(F)F)C2 has the entry -10%[70.6 µM]
For NPR1 antag, Cc1cc2c(c(=O)n(-c3ccc(F)cc3)c(=O)n2CC(=O)Nc2cccc(C#N)c2)n1C has the entry 1%

The list continues:
SMILES	NPR1 antag
CCn1cc(-c2cc3c(cn2)CN(CCc2ccccc2)CCN3)cn1	-2%[70.6 µM]
CCc1ccc(C(=O)NCc2nnc3cc(-c4nc(C)no4)ccn23)cc1	-1%
CCC1c2nccn2CCCN1C(=O)Cc1ccc(OC)cc1 (centres undefined)	-3%
COC1CCN(C(=O)c2ccnc(-c3nnc4ccc(N(C)c5ccccc5)nn34)c2)CC1	-6%
O=c1n(CC2CC2)nc2n1CCN(Cc1ccc3cc[nH]c3c1)CC2	-10%
O=C1CC(c2ccccc2)N(Cc2ccncc2)CCCN(C(=O)c2ccc3ccccc3n2)CCN1 (centres undefined)	5%
CCCN(CC1CCOC1)C(=O)Nc1ccc(Br)cc1 (centres undefined)	-1%
CN(C)[C@@H]1CN(Cc2cccc(F)c2F)CC[C@@H]1CNC(=O)C1CC1	1%
O=C(CS(=O)(=O)c1ccccc1)N[C@H]1CCN2C(=O)[C@H](Cc3ccc(F)cc3)NC(=O)[C@@H]2C1	0%
CCCCc1ncc(CN2CCCC(c3cccc(C(=O)O)c3)C2)[nH]1 (centres undefined)	2%
CC(C)N1C(=O)C(CC(=O)NCC2CCN(Cc3cccc(F)c3)CC2)=C2CCCCC21 (centres undefined)	-2%
COc1ccc(/C=C/c2ccc3c(c2)C(=O)N2C[C@@H](NC(=O)CC(C)(C)CC(=O)O)C[C@H]2C(=O)N3)cc1	0%
COCC(=O)N1CCC(c2nn(-c3ccccc3)c(=O)[nH]2)CC1	21%[70.6 µM]
CC(=O)N1C[C@@H](C(=O)N2CCOCC2)[C@H](c2nc(C)no2)C1	0%
O=C(CCc1ccccc1)N1CCCC(c2noc(COc3ccccc3F)n2)C1 (centres undefined)	0%
O=C1CCN(C(=O)c2ccco2)CCCCCCN1	-1%
Cc1cc(C)cc(NC(=O)C2CCN(C(=O)c3ncn4c3COC(c3ccc(F)cc3)C4)CC2)c1 (centres undefined)	-3%
COc1ccc(F)cc1CN1CCC(O)(CN2CCCCC2)C1 (centres undefined)	-1%
COCCOc1ccc(C(=O)N[C@@H]2CN(C(=O)Nc3cccc(C(F)(F)F)c3)CCC[C@H]2O)cc1	-1%
CC(=O)N(C1CC1)C1CCOC2(CCN(C(=O)c3sc(C)nc3C)CC2)C1 (centres undefined)	-3%
Cc1cn2nc(C(=O)NC3CCCCC3)cc2c(N2CCCC2)n1	10%
CN(Cc1ccccc1C(F)(F)F)C(=O)c1ccccc1F	3%[70.6 µM]
COc1cccc(-c2nc(-c3nnn4c3COC(c3ccc(Cl)cc3)C4)no2)c1 (centres undefined)	-13%
CS(=O)(=O)N1CCC(OC2CCN(C(=O)NCc3ccco3)CC2)CC1	5%
O=C(Cc1ccsc1)N1CCCn2cc(-c3ccccc3F)nc21	2%
COc1cccc(NC(=O)Cn2c(N3CCc4ccccc4C3)nc(C)cc2=O)c1	u
COc1ccc(C(CC(=O)N2CCCCC2)c2c[nH]c3ccccc23)cc1OC (centres undefined)	-9%
Cc1ccc(CNC(=O)C2(CCO)CCN(Cc3ccccc3)C2)o1 (centres undefined)	-1%
CCOc1cc(-c2nc(C3CC(=O)N(c4ccc(OC)cc4)C3)no2)cc(OCC)c1OCC (centres undefined)	-1%
Fc1cccc(Nc2nc(-c3ccccc3)no2)c1	u

Sorted by SMILES length (lowest first): part of the list above
SMILES	NPR1 antag
CN(Cc1ccccc1C(F)(F)F)C(=O)c1ccccc1F	3%[70.6 µM]
Cc1cn2nc(C(=O)NC3CCCCC3)cc2c(N2CCCC2)n1	10%
Cc1ccc(CNC(=O)C2(CCO)CCN(Cc3ccccc3)C2)o1 (centres undefined)	-1%
COc1cccc(NC(=O)Cn2c(N3CCc4ccccc4C3)nc(C)cc2=O)c1	u
COc1cccc(-c2nc(-c3nnn4c3COC(c3ccc(Cl)cc3)C4)no2)c1 (centres undefined)	-13%

New compounds follow
SMILES	NPR1 antag
CCCNC(=O)N1CCOC[C@H](Oc2ccc(OC)cc2)C1	6%[70.6 µM]
CN1C(=O)CO[C@H]2CN(C(=O)c3ccccc3)C[C@H]21	4%[70.6 µM]
CC(=O)NC[C@H]1O[C@@H](CC(=O)NCc2ccc(F)cc2)[C@H](O)[C@@H]1O	4%[70.6 µM]
CCn1cc(CN2CCOc3ccc(C(=O)NCc4ccccc4F)cc3C2)cn1	-4%
O=C(O)C[C@@H]1CCN(C(=O)COc2ccccc2)C[C@@H]1CCN1CCCCC1	7%[70.6 µM]
Cc1ccc(CC(=O)N2CCN(c3cc(C(F)(F)F)ncn3)CC2)cc1	u

Three compounds from above, ordered by the value under NPR1 antag, high to low:
SMILES	NPR1 antag
CC(=O)Nc1ccccc1-c1c(C)nn2c1N(C(=O)c1ccc(Oc3ccccc3)cc1)CCC2	11µM*
COc1ccc(-c2noc(CC3CCN(C(=O)c4ccc(OC)cc4OC)CC3)n2)cc1	2.8µM*
CC1CCC(NC(=O)C2CCN(c3cc(C(F)(F)F)ncn3)CC2)CC1 (centres undefined)	2.2µM*

An excerpt (hit frequency here may not be typical).
